LANA-nucl inh: LANA-nucleosome interaction inhibition. FITC-LANA1-23 / chicken nucleosome fluorescence polarization; stronger effect = lower value. hit rate 0.3% among 51,000. z-score (concentration not given with the values);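 active = both repeat wells score below -2 in polarization z-score versus plate sample wells, excluding overly bright wells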;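 note: 100 nL library stock added to about 30 µL; numbers are from one replicate; some results filed as inactive read as strong as hits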
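Test system: purified chicken nucleosomes with FITC-labelled LANA N-terminal peptide (1-23); Input: 240 nM purified chicken nucleosomes (480 nM peptide binding sites), final; Medium: TEN-BT buffer, pH 7.5; Timing: 10–45 min, room temperature; Technique: fluorescence polarization, 480 nm excitation, 535 nm parallel and perpendicular emission; Replication: duplicates.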
BasE inh: blocks the Acinetobacter baumannii siderophore enzyme BasE. hit rate 0.1% among 84,000. purified BasE, fluorescence polarization binding displacement. inhibition, % (test concentration not listed);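 active = both replicates above 25% with normal brightness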;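 note: 0% = negative plate control signal and 100% = positive plate control signal; stock transfer was 100 nL into about 30 µL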
Numbers without * were called inactive; / = no result given; & = joins results of further samples. The list is partial; count on the stated rates, not on these rows.

The opening 6 entries as a preview:
Every second line gives: LANA-nucl inh, BasE inh
Cc1onc(-c2c(F)cccc2Cl)c1NC(=O)OCc1sccc1-n1c(C)ccc1C
→ /, -1.9
Cn1c(=O)c2c(nc(SCCN3CCOCC3)n2Cc2ccccc2Cl)n(C)c1=O
→ -0.69, 2.3
CCCNC(=O)NCc1cc(C)n(-c2ccc(OC)cc2)c1C
→ /, -0.5
COc1cc(/C=C2/OC(=S)N(C)C2=O)ccc1O
→ -0.059, -0.4
C[C@]12C=CC(=O)C=C1CCC1C2[C@@H](O)C[C@@]2(C)C1CC[C@]2(O)C(=O)COC(=O)CCC(=O)O (stereo not given in full)
→ 0.4, /
N#CC(C(=O)CSc1nc2ccccc2n1-c1ccccc1)c1ccccc1 (stereo not given)
→ /, -1.4

Main list, from the start:
Every second line gives: LANA-nucl inh, BasE inh
Cc1onc(-c2c(F)cccc2Cl)c1NC(=O)OCc1sccc1-n1c(C)ccc1C
→ /, -1.9
Cn1c(=O)c2c(nc(SCCN3CCOCC3)n2Cc2ccccc2Cl)n(C)c1=O
→ -0.69, 2.3
CCCNC(=O)NCc1cc(C)n(-c2ccc(OC)cc2)c1C
→ /, -0.5
COc1cc(/C=C2/OC(=S)N(C)C2=O)ccc1O
→ -0.059, -0.4
C[C@]12C=CC(=O)C=C1CCC1C2[C@@H](O)C[C@@]2(C)C1CC[C@]2(O)C(=O)COC(=O)CCC(=O)O (stereo not given in full)
→ 0.4, /
N#CC(C(=O)CSc1nc2ccccc2n1-c1ccccc1)c1ccccc1 (stereo not given)
→ /, -1.4
Clc1ccc(NCCC2=CCCCC2)nn1
→ 0.036, 2.6
CCOC(=O)Cc1c(C)c2ccc(N(CC)CC)cc2oc1=O
→ 0.026, -1.2
CC(Sc1ncn[nH]1)C(=O)Nc1ccccc1C#N (stereo not given)
→ -0.24, 2.4
CCc1sc(C(=O)N2CCN(S(=O)(=O)c3ccccc3)CC2)cc1Br
→ -0.067, 4.2
CN(C)c1ccc(NC(=O)CC(C(=O)O)N(C)C)cc1 (stereo not given)
→ 0.19, 1.3
Fc1ccc(-n2nnnc2-c2cnccc2C(F)(F)F)cc1
→ -0.76, -0.1
COc1ccc(-c2noc(COC(=O)CSc3ncnc4sccc34)n2)c(OC)c1
→ /, 1.7
O=C1CN(C(=O)c2ccc(S(=O)(=O)N3CCOCC3)cc2)C(c2ccccc2)c2cc(F)ccc2N1 (stereo not given)
→ -0.77, -1.9
COc1ccc(CNC(=O)/C=C/c2c(C)nn(C3CCS(=O)(=O)C3)c2Cl)cc1OC (stereo not given)
→ /, 0.2
C=CCNC(=O)c1ccc2c(c1)OCO2
→ -0.12, 20
O=C1CC(c2ccccc2)c2c(O)cc(O)cc2O1 (stereo not given)
→ -0.016, /
Cc1ccnc(NS(=O)(=O)c2ccc(NC(=O)CSc3nc(C)cc(=O)[nH]3)cc2)n1
→ 0.31, 2.4
O=C(O)c1cc2c(F)cccc2s1
→ /, 1.8
Cc1cc2cc3c(cc2nc1SCCN1CCCC1)OCCO3
→ -0.38, -9.2
CCOC(=O)NS(=O)(=O)c1ccccc1Cl
→ /, -0.8
O=C(CSc1nnc2scc(-c3ccc(Cl)cc3)n12)NCc1ccc2c(c1)OCO2
→ /, 2.6
N#CCCn1nnc(-c2ccc(Cl)cc2)n1
→ /, 1.9
CSc1nc(-c2ccc(C)cc2)nc(N)c1C#N
→ -1.3, 3.0
Cc1ccc(C(=O)COC(=O)C2c3ccccc3Oc3ccccc32)cc1C
→ /, 3.2
Cc1ccc(S(=O)(=O)NCC2CCCO2)cc1 (stereo not given)
→ 0.059, 2.0
Cc1ccc(C)c(N2CCN(CCCNS(=O)(=O)c3ccc4oc(=O)c5ncn(C)c5c4c3)CC2)c1
→ -0.072, -2.5
O=c1/c(=C/c2cccc(F)c2)sc2nc(C3COc4ccccc4O3)nn12 (stereo not given)
→ -0.079, 3.5
Cc1nn(Cc2ccc(Cl)cc2)c(C)c1NC(=O)COCc1cc(-c2cccs2)on1
→ -0.086, -4.2
NC(=O)c1cc(N)ccc1N1CCCC1
→ 0.75, -1.8
Cc1cc(NC2C3CC4CC(C3)CC2C4)n2ncnc2n1 (stereo not given)
→ -1.5, 0.9
COC(=O)/C(C#N)=C/c1ccccc1I
→ /, 2.4
S=C1NCN(CC2CCCO2)CN1 (stereo not given)
→ 0.19, 1.3
C=CCn1c(C)cc(C(=O)CSc2nc3ccccc3c(=O)n2CC=C)c1C
→ /, 1.4
N#Cc1cccc(NC(=O)CNc2ccccc2Cl)c1
→ /, 1.0
CC(NC(=S)N1CCc2ccccc2C1)C12CC3CC(CC(C3)C1)C2 (stereo not given)
→ /, 1.4
Cc1cccc(NC(=O)CC(C)(C)C)c1
→ 1.1, -0.6
COc1ccc(Nc2c(-c3cc(Br)ccc3O)nc3cnccn23)cc1
→ -0.13, 0.3
Cc1nc(N)sc1C(N)=O
→ -1, 1.6
O=C(Cc1n[nH]c(=O)c2ccccc12)OC1CCOC1=O (stereo not given)
→ /, 0.5
Cc1c(CSC(=N)N)c(C)c(CSC(=N)N)c(C)c1CSC(=N)N
→ -2.9*, -2.6
Nc1nccc(-c2ccccc2OCc2ccc(Cl)cc2)n1
→ 0.25, /
O=C1CC(C(=O)Nc2ccc(Cl)cc2)N=C(N2CCc3ccccc32)N1 (stereo not given)
→ -1.5, -0.7
COc1ccc(OCC(=O)N2N=C3/C(=C/c4ccco4)CCCC3C2c2ccco2)cc1 (stereo not given)
→ /, -0.9
CCOC(=O)c1cc2c(n(-c3ccc(OC)cc3)c1=O)CCCC2=O
→ -0.38, 1.5
COc1c[nH]n(C2CCCCC2)c(=O)c1=O
→ 0.45, -3.0
Cc1cc(C)nc(NC(C(=O)O)C(C)C)n1 (stereo not given)
→ 0.0035, 0.7
COc1ccc(-c2nn(C)c3sc(C(=O)NC(C)C)cc23)cc1OC
→ -0.41, 3.2
O=c1[nH]nc(SCCO)c(=O)[nH]1
→ 0.26, -2.5
CN1C(=O)c2c(sc3c2CCCC3)NC1c1ccc(O)cc1 (stereo not given)
→ 0.12, 0.5
OCc1cc2ccccc2o1
→ /, 2.3
COc1ccc(NC(=S)NC2CCCCC2)cc1
→ /, 2.9
CCOc1ncc(-c2nnnn2-c2ccc(C)cc2)c(-c2cccc(Cl)c2)n1
→ /, 1.2
Cc1oc(-c2cccc(C(F)(F)F)c2)cc1C(=O)O
→ 1.9, -2.4
Cc1nn(-c2ccccc2)nc1C(=O)OCc1ccc(C#N)cc1
→ /, 0.6
Cc1nc(SCc2nc3ccccc3o2)n(C2CCCC2)c1C
→ /, -1.6
O=C(Cn1c(=O)n(-c2ccccc2)c(=O)c2oc3ccccc3c21)N1CCCC1
→ -0.61, 3.2
NS(=O)(=O)c1ccc(NC(=O)c2ccc(S(=O)(=O)N3CCc4ccccc43)cc2)cc1
→ -0.78, 2.2
CCOc1ccc2nc(NCCNC(=O)C(C)(C)C)c(C)cc2c1
→ 0.52, -0.6
O=C1COc2ccc(C3=Nn4c(nnc4-c4ccncc4)SC3)cc2N1
→ /, 2.7

(continued)
Every second line gives: LANA-nucl inh, BasE inh
Cc1cc(C(F)(F)F)c(C#N)c(=S)[nH]1
→ /, -7.5&-4.5
Cc1cccc(OCc2nc(-c3ccc(C(F)(F)F)cc3)no2)c1C
→ 0.048, 1.9
COc1cccc(C(=O)N(C)C)c1
→ -2.2, 0.9
CCOC(=O)c1c(C)oc(NC(=O)COC(=O)COc2ccc3c(c2)CCC3)c1C#N
→ /, -0.7
CC(C)CC(=O)N=C1SC2CS(=O)(=O)CC2N1c1ccccc1 (stereo not given)
→ -1.4, 0.9
COC(=O)C1=C(O)/C(=C/c2ccc(C(C)(C)C)cc2)N=C1C
→ /, 1.6
Cc1cc(C)cc(N2C(N)=NC(N)=NC2c2ccccc2F)c1 (stereo not given)
→ 0.14, -2.4
Cc1nc(N(CC(=O)OC2CC(C)CCC2C(C)C)S(=O)(=O)c2ccc(N)cc2)c(C)n1N (stereo not given)
→ /, -1.7
CCOC(=O)CC(=O)c1ccccc1
→ /, -0.6
Cc1ccc(C(=O)COC(=O)c2ccccc2O)cc1
→ 0.65, -0.1
CC1(C)Cc2c(sc(NC(=O)C3CC3)c2C(N)=O)C(C)(C)N1
→ -2.2, 0.6
COc1ccc(CCN(C)CCCN2CC(c3ccccc3)CC2=O)cc1OC (stereo not given)
→ -0.69, -2.4
N#CC1=C(N)C(C#N)(C#N)C(c2ccco2)C2CN(Cc3ccccc3)CC=C12 (stereo not given)
→ -5.4*, 28
O=S(=O)(NC1(C(F)(F)F)Oc2ccccc2O1)c1ccccc1
→ -1.2, 24
Cc1nn(-c2ccccc2)c(C)c1NC(=O)COC(=O)/C=C/c1cccs1
→ /, 1.8
O=C(COC(=O)CSc1nnc(-c2ccc(Cl)cc2)o1)NC1CCS(=O)(=O)C1 (stereo not given)
→ /, -1.5
Cc1ccccc1N(C)C(=O)NCc1noc2ccccc12
→ -0.57, 3.1
Cc1ccc(C(=O)N/C(=C/c2ccco2)C(=O)Nc2nccs2)cc1
→ 0.35, -3.1
Cn1c(C(C#N)C(=O)c2ccc(Cl)c(S(=O)(=O)N3CCCCCC3)c2)nc2ccccc21 (stereo not given)
→ /, -3.7
Cc1cc(=O)oc2cc(NC(=S)NCCN3CCCCC3)ccc12
→ -0.21, -1.9
Cc1cccc(N(C)S(=O)(=O)c2c(C(=O)N3CCCCC3)c(C)n(C)c2C)c1
→ -0.23, 2.0
COc1ccc2c(c1)c(CC(=O)Nc1nnc(-c3ccccc3)o1)c(C)n2C(=O)c1ccc(Cl)cc1
→ /, -2.4
Cc1ccc(NC(=O)CSc2ncn(-c3ccccc3)n2)cc1
→ /, 1.4
CS/C(N)=N/C(N)=Nc1ccc(Cl)cc1
→ /, 0.5
COc1ccc(SCC(=O)N(c2ccccc2)C2CCS(=O)(=O)C2)cc1 (stereo not given)
→ /, 0.9
OCCNc1ncnc2sc3c(c12)CCCC3
→ /, -1.4
C=CCn1c(SCC(=O)N(C)C2CCS(=O)(=O)C2)nc2ccccc2c1=O (stereo not given)
→ /, -0.6
S=C(SCc1ncon1)N1CCSCC1
→ /, 2.2
Cc1ccc(S(=O)(=O)N=S(Cc2ccccc2)Cc2ccccc2)cc1
→ /, -2.4
CN1CCN(C(=O)C2C3C=CC(C3)C2C(=O)O)CC1 (stereo not given)
→ 0.47, 4.2
CCOC(=O)Cn1nnnc1CN(CCc1ccc(OC)c(OC)c1)Cc1cc2c(C)ccc(C)c2[nH]c1=O
→ 0.058, -0.7
COc1ccc(N2CCN(CCNc3nc4ccccc4n4c(C)nnc34)CC2)cc1
→ 0.69, 1.9
CCOC(=O)C/C(C)=N/c1ccnn1-c1ccccc1
→ 0.29, -11
CN(C)S(=O)(=O)c1ccc2oc(SCN3C(=O)c4ccccc4C3=O)nc2c1
→ /, 1.9
Cc1cccc(C(=O)NCCCn2ccnc2)c1
→ /, 1.7
CN1C(=O)c2ccccc2N2C(=O)CCC12C(=O)OCc1ccc(C#N)cc1 (stereo not given)
→ /, -0.3
CN(Cc1nnc(-c2ccc(Cl)cc2)o1)S(=O)(=O)c1ccc2ccccc2c1
→ /, 1.2
O=C(O)c1nnc(Cl)c2ccccc12
→ -0.16, -2.2
O=C(O)CCN(Cc1ccco1)S(=O)(=O)c1cccc2nsnc12
→ 0.82, 3.9
Oc1ccc(C(=S)N2CCN(Cc3ccccc3)CC2)cc1
→ -1.3, 5.8
COc1ccc(-c2cc(=Nc3ccc(C)cc3C)c3cc(O)ccc3o2)cc1
→ /, 1.2
O=C(N/N=C1/CCS(=O)(=O)c2ccc(F)cc21)c1ccccn1
→ /, -0.6
COc1ccc(C(=O)N(CN2CCCC2=O)c2nccs2)cc1OC
→ -0.66, -3.4
COC(=O)C1=C(C)NC2=C(C(=O)c3ccccc32)C1c1ccc(Br)o1 (stereo not given)
→ 0.86, -1.1
CC(=O)Nc1ccc(NC(=O)C(C)n2c(C)c3cnn(-c4ccccc4)c(=O)c3c2C)cc1 (stereo not given)
→ 0.8, -3.6
O=C(c1ccccc1Cl)N1CCN(c2ccc(N3CCCCCC3)nn2)CC1
→ 0.75, -0.1
Cc1onc(-c2ccccc2)c1C(=O)Sc1ccc(C(F)(F)F)cn1
→ 0.18, 0.2
O=C1c2ccccc2C(=O)N1CCc1nn[nH]n1
→ -0.79, 2.3
Cc1ccccc1-c1noc(CCC(=O)NC(C)C)n1
→ 0.48, 2.2
Cc1nc(C(F)(F)F)ccc1C(=O)NN1CCOCC1
→ /, 1.3
Cc1ccccc1-n1nnnc1SCC(=O)N/N=C/c1ccccc1O
→ /, 2.2
O=C(NC1CC1)c1cc2n(n1)CCCN(Cc1ccccc1)C2=O
→ 0.13, 1.7
CCCC1c2ccsc2CCN1C(=O)c1cc(OC)cc(OC)c1 (stereo not given)
→ /, -0.7
CCOC(=O)c1c(C)oc2nc(CN3c4cccc5cccc(c45)S3(=O)=O)nc(N)c12
→ /, -1.3
CC1CCCCN1C(=O)C12CC3CC(CC(C3)C1)C2 (stereo not given)
→ 0.41, 0.0
COc1ccc(NCc2nc(-c3ccc(C)cc3)no2)cc1OC
→ 2, -0.4
C=CCn1c(SCC#N)nnc1-c1ccc(Br)cc1
→ /, 0.5
O=C(NCC(c1ccco1)N1CCCC1)c1ccc2ccccc2n1 (stereo not given)
→ /, -1.9

Some of the entries so far, with bars between the fields.
canonical_smiles | LANA-nucl inh | BasE inh
CN(Cc1nnc(-c2ccc(Cl)cc2)o1)S(=O)(=O)c1ccc2ccccc2c1 | / | 1.2
O=C(O)c1nnc(Cl)c2ccccc12 | -0.16 | -2.2
O=C(O)CCN(Cc1ccco1)S(=O)(=O)c1cccc2nsnc12 | 0.82 | 3.9

Source: PubChem (ICCB-Longwood Screening Facility, Harvard Medical School)
